MARV entry inh – inhibitors of Marburg virus binding or cell entry; Marburg virus pseudotyped entry inhibition, cell reporter; control for the full effect not named in the record; about a third of the inactives were read at about 46 µM; Potency, µM (highest dose often 37.8 µM), for the others: top-dose activity change, negative = inhibition, actives largely listed as inhibitors; 300,000 tested, 1.8% active; AID 540276; active = well fitted inhibition curve with a large enough effect; inconclusive = small, poorly fitted or top-dose-only effect, or effect the other way; inactive = flat fitted curve, though single readings scatter; tested in HEK293 cells; about a fifth of its hits are not listed in these tables; note: % is set by controls: 0 for no effect and ±100 for the full control effect; luciferase read-out
NS1 inh – blocks influenza NS1 protein function; S. cerevisiae slowed by influenza A NS1, growth recovery by OD600; Potency, µM (highest dose often 46.1 µM), for the others: at the highest dose activity, positive = more growth; 270,000 tested, 0.4% active; note: actives are rising curves; nearly all actives have a fitted effect of over 50% in size
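In this qHTS, NS1 from influenza A is expressed in budding yeast, where it slows growth. Cells are switched from glucose to 2% galactose medium (pH 6.0, -URA), treated with compound, and growth recovery is read at OD600.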
RE007 growth inh – less growth of the S. pombe RE007 Vpr strain | S. pombe RE007 Vpr strain, BacTiter-Glo ATP luminescence, 24 h; control for the full effect not named in the record | Potency, µM (highest dose often 92.2 µM), without a hit: top-dose activity change, negative = less growth | 360,000 tested, 0.21% active | AID 651644; active = well fitted falling curve with a large enough effect; inconclusive = small, poorly fitted or top-dose-only effect; inactive = no such curve, though single readings can be large or run the other way;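 note: % is set by controls: 0 for no effect and ±100 for the full control effect; nearly all actives have a fitted effect of over 50% in size; the assay follows cell death caused by Vpr and the record does not say whether a fall means rescue or toxicity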
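Fission yeast strain RE007, carrying one chromosomally integrated HIV-1 vpr copy, was seeded at OD 0.01 in PMG+AL medium with 23 nL pinned compound. After 24 h at 30 °C and 99% humidity, viability was read by BacTiter-Glo luminescence.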
2A StopGo – FMDV 2A StopGo reporter, luciferase signal; Potency, µM (highest dose often 57.9 µM), without a hit: at the highest dose signal change, negative = less light; 410,000 tested, 1.2% active; human cells with a luciferase reporter of 2A StopGo recoding; control for the full effect not named in the record; active = well fitted falling curve with a large enough effect; inconclusive = small, poorly fitted or top-dose-only effect; inactive = no such curve, though single readings can be large or run the other way; tested in HEK293T cells; note: % is set by controls: 0 for no effect and ±100 for the full control effect; nearly all actives have a fitted effect of over 45% in size; luciferase light after 4 h
Cruzain Triton – inhibitors of Trypanosoma cruzi cruzain with detergent. 200,000 tested, 0.43% active. Potency, µM, for inactives: max response, negative = inhibition, actives largely listed as inhibitors. P25779. purified cruzain, Z-FR-AMC fluorescence, 0.01% Triton. AID 1478; active = well fitted curve in the direction sought with a large enough effect; inconclusive = small, poorly fitted or top-dose-only effect, or another doubt; inactive = no such curve, though single readings can be large; an effect the other way counts as inactive or inconclusive;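 note: plate controls were neutral wells for no effect and buffer without enzyme for full effect; nearly all actives have a fitted effect of over 40% in size; top concentration of the series not given in the record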
Target sequence (P25779 123-467 limits assumed): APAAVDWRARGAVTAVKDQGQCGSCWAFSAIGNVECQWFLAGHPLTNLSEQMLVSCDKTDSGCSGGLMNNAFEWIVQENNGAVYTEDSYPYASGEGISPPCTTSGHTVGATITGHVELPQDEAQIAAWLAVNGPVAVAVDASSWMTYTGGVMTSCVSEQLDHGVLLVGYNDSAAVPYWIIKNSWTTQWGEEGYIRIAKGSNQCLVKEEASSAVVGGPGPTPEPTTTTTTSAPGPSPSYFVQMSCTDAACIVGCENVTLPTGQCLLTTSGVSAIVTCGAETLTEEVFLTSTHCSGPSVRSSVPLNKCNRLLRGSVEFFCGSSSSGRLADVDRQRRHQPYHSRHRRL
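Compounds were screened in titration against cruzain (1.5 nM) with 0.01% Triton X-100 to counter colloidal aggregation. Activity was the AMC fluorescence increase over 60 s after adding 2 uM Z-FR-AMC at pH 5.5.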
SARS PLpro yeast – inhibitors of SARS-CoV papain-like protease in yeast. 330,000 tested, 0.19% active. S. cerevisiae expressing SARS-CoV PLpro, growth rescue; control for the full effect not named in the record. Potency, µM (doses to about 32.9 µM), inactives show at the top dose activity, positive = growth rescue. AID 485353; note: 0% is about no effect; nearly all actives have a fitted effect of over 55% in size; growth read by luminescence after 48 h
LASV entry inh – Lassa virus entry inhibition | Potency, µM (highest dose often 37.9 µM), for inactives: at the top dose activity change, negative = inhibition, actives largely listed as inhibitors | AID 540256 | Lassa virus pseudotype entry inhibition, cell reporter; control for the full effect not named in the record | 300,000 tested, 1.2% active; active means well fitted inhibition curve with a large enough effect; inconclusive means small, poorly fitted or top-dose-only effect, or effect the other way; inactive means flat fitted curve, though single readings scatter; tested in HEK293 cells; note: % is set by controls: 0 for no effect and ±100 for the full control effect; nearly all actives have a fitted effect of over 50% in size; luciferase read-out
Cruzain noTriton – blocks cruzain activity in detergent-free assay. P25779. purified cruzain, Z-FR-AMC fluorescence, no detergent. Potency, µM, for inactives: max response, negative = inhibition, usual class: inhibitors. 200,000 tested, 2.3% active. AID 1476; active = well fitted curve in the direction sought with a large enough effect; inconclusive = small, poorly fitted or top-dose-only effect, or another doubt; inactive = no such curve, though single readings can be large; an effect the other way counts as inactive or inconclusive;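 note: plate controls were enzyme without inhibitor for no effect and buffer without enzyme for full effect; nearly all actives have a fitted effect of over 40% in size; top concentration of the series not given in the record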
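Purified cruzain at 1.5 nM, pre-incubated 15 min with compound at room temperature in 100 mM sodium acetate pH 5.5, 5 mM DTT, 0.00005% Triton X-100. Reaction started with 2 uM Z-FR-AMC; AMC fluorescence increase over 60 s gives rate.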
The depositor's hits bear a star; ? = inconclusive; · = no result given; [ ] = another dose, or the depositor's remark. Unless noted, calls come from the whole dose curve; as a rule, active means well fitted rising curve with a large enough effect; inconclusive means small, poorly fitted or top-dose-only effect; inactive means no such curve, though single readings can be large or run the other way. Potency is the fitted concentration of half-maximal effect.

SMILES | MARV entry inh | NS1 inh | RE007 growth inh | 2A StopGo | Cruzain Triton | SARS PLpro yeast | LASV entry inh | Cruzain noTriton
Cc1ccc(C2(C)NC(=O)N(CC(=O)N3CCN(S(=O)(=O)c4ccc(Cl)s4)CC3)C2=O)cc1 (stereo not given) | -24% | · | 3% | ? | · | 5% | 13% | ·
COc1ccc(C(=O)NCc2ccc3c(c2)CCN3C(=O)c2ccc(C)cc2)cc1 | · | · | · | -15% | -0.5% | · | -38%[46.1 µM] | -4%
CC(=O)c1cccc(NC(=O)Nc2ccc(C(=O)N3CCOCC3)cc2)c1 | 8% | -5% | -11% | 6% | -1.8% | -2% | ? | -4%
NC(=O)C1(N2CCCCC2)CCN(C(=O)c2ccccc2)CC1 | · | -2% | -7% | 0% | 0.3% | 0% | · | 1%
Cc1nn(C(C)C(=O)NCCc2ccccc2)c(=O)c2c1sc1ccccc12 (stereo not given) | -4%[46.1 µM] | · | · | -6% | -6.6% | · | 15%[46.1 µM] | ?
COc1ccc(/C=C2/C(=O)NC(=S)N(C3CC3)C2=O)cc1CN1C(=O)c2ccccc2C1=O | 9% | 3% | -3% | ? | -7.6% | ? | 2% | 20%
Cc1nc2cc(C(=O)NC3CCCCCC3)ccc2n1-c1ccc(Br)cc1 | · | · | · | 14% | -0.6% | · | 0%[46.1 µM] | -6%
O=C(Nc1ccc(N2CCN(C(=O)c3ccccc3)CC2)cc1)c1ccc(Br)o1 | ? | ? | -21% | 0% | -5.0% | -12% | -28% | ?
CCCCOc1ccc(CNC(=O)C2COc3ccc(OC)cc3C2)cc1 (stereo not given) | · | · | · | -10% | 0.0% | · | -23%[46.1 µM] | 5%
COCCNC(=O)Cn1cc(C(=O)c2ccccc2F)c2ccccc21 | 6% | 1% | -15% | -6% | · | · | -5% | ·
COCCn1c(=S)[nH]c2ccccc21 | 10%[14.2 µM] | -2% | 5% | -4% | · | -2% | -29% | ·
COc1ccc(OC)c(C2=NS(=O)(=O)N(C)C(C(=O)NCc3ccco3)=C2)c1 | · | 5% | 4% | 2% | · | 6% | · | ·
CCOc1ccccc1NC(=O)C1=C(C)Nc2ncnn2C1c1ccco1 (stereo not given) | · | · | · | -23% | -1.1% | · | 13%[46.1 µM] | -4%
COCCN1C(=O)/C(=C/c2ccc(N3CCCC3)cc2)SC1=S | 14%[46.1 µM] | 2% | -5% | -6% | · | 0% | 17% | ·
COc1ccc(/C=N/NC2=NCCCCC2)cc1 | -14% | 0% | -7% | · | 3.6% | 5% | 13% | 2%
CCOC(=O)c1c(NC(=O)CN2CCCc3ccccc32)sc(C)c1C | ? | 4% | -9% | -22% | -10% | -5% | -19% | 2%
CCc1nnc(SCC(=O)Nc2nnc(C)s2)n1CC1CCCO1 (stereo not given) | 13% | -7% | -13% | -8% | · | 7% | 8% | ·
CSc1ccccc1NC(=O)CCc1ccccc1 | · | -2% | -27% | 22% | · | -1% | · | ·
Cc1ccccc1NC(=O)CN1C(=O)NC(C)(CCc2ccccc2)C1=O (stereo not given) | -5%[46.1 µM] | · | -6% | 0% | · | 1% | -16% | ·
CCN1CCN(C(=O)CSc2nc(N)cc(N)n2)CC1 | 7% | 1% | 3% | 1% | · | -1% | 13% | ·
COc1cc(/C=N/Nc2nc(-c3ccc(S(=O)(=O)N(C)C)cc3)cs2)ccc1O | · | ? | 4% | 35µM* | · | 1% | · | ·
COc1ccc(Cl)cc1NC(=O)CN(C)C(=O)c1ccc2c(c1)OCCO2 | -7% | · | 5% | -3% | · | -1% | 0% | ·
Cc1[nH][nH]c(=O)c1N=Nc1ccc(F)cc1 | · | 0% | -4% | -2% | · | 0% | · | ·
Cc1ccccc1OCCn1cc(C(=S)N2CCCC2)c2ccccc21 | ? | · | -7% | -24% | · | · | -3% | ·
CCOc1ccc(CN(C)CC(=O)c2c(N)n(Cc3ccccc3)c(=O)n(CC)c2=O)cc1OC | ? | 8% | -23% | -10% | -2.6% | · | 6% | -3%
O=C(COC(=O)CCC(=O)c1cccs1)Nc1cc(S(=O)(=O)N2CCOCC2)ccc1Cl | -25% | -5% | 0% | -4% | -1.1% | 17% | 8% | 19%
CCCCN(C(=O)C1=COCCO1)c1c(N)n(CCCC)c(=O)[nH]c1=O | 9% | · | 8% | -9% | · | · | 8% | ·
Cc1nnc(SCC(=O)N(C)C2CCCCC2)n1C | 8% | · | ? | -17% | · | 5% | 17% | ·
O=C(O)CC(CC(=O)Nc1ccc(Oc2ccccc2)cc1)c1ccccc1 (stereo not given) | 1%[46.1 µM] | 10% | 27% | 4% | · | 0% | ? | ·
Cc1ccc(S(=O)(=O)CCC(=O)OCc2ccccc2)cc1 | · | -8% | 4% | -17% | · | 1% | · | ·
CCn1c(=O)[nH]c(=O)c2c(N)c(C(=O)c3ccccc3OC)sc21 | -38% | -4% | 3% | -22% | -2.9% | 17% | ? | -16%
CCOC(=O)C1(CC/C(C)=N\NC(N)=O)CC(C)(C)OC1=O (stereo not given) | 0% | -9% | 12% | 13% | -1.6% | -6% | 17% | -11%
CCc1ccc(NC(=O)CCc2c(C)nc3nc(-c4cc(OC)cc(OC)c4)nn3c2C)cc1 | ? | · | · | 12% | 1.7% | · | 9%[46.1 µM] | -5%
COC(=O)/C=C/c1cnc[nH]1 | · | 40% | 3% | 3% | · | 18% | · | ·
Nc1nnc(SCC(=O)c2ccc([N+](=O)[O-])cc2)s1 | 17%[46.1 µM] | · | 0% | 0% | · | -4% | 16%[46.1 µM] | ·
Cc1c2c(n3c(nc4ccccc43)c1C#N)N(CCCN(C)C)CC2 | ? | 0% | -22% | 1% | · | 0% | 13% | ·
CCC1Oc2ccc(C)cc2N(CC(=O)NCCCN2CCCCC2C)C1=O (stereo not given) | · | ? | -3% | -20% | · | 2% | · | ·
Cc1cccc(NC(=S)NNC(=O)c2csc3c2CCC(C)C3)c1 (stereo not given) | ? | -1% | -1% | 69%[activator] | -3.3% | 1% | 9% | 3%
NC(=O)c1ccc(N2CCCCCC2)c([N+](=O)[O-])c1 | 12%[46.1 µM] | · | -14% | -9% | · | -5% | ? | ·
COc1cc(C(=S)N2CCCC2)ccc1OC(=O)c1ccc(Cl)cc1[N+](=O)[O-] | 9% | 2% | 18% | -23% | -2.0% | 24% | -1% | -2%
O=C(CNc1cccc(S(=O)(=O)N2CCOCC2)c1)Nc1ccc(C(F)(F)F)cc1 | ? | · | -4% | 32µM* | · | 5% | -19% | ·
O=C1Nc2ccc([N+](=O)[O-])cc2OC1CCN1CCOCC1 (stereo not given) | -4%[46.1 µM] | 6% | 6% | -17% | · | 0% | 13%[46.1 µM] | ·
CC(C)Oc1ccc(CNC(=O)c2sc3ncccc3c2-n2cccc2)cc1 | · | · | · | ? | -8.8% | · | -6%[46.1 µM] | 0%
COc1ccc(-c2nsc(NC(=O)COc3ccc(C)c(C)c3)n2)cc1 | -2%[46.1 µM] | · | · | -11% | 0.8% | · | 17%[46.1 µM] | -1%
COc1ccc(-c2cn(-c3cccc(C)c3)c(=O)[nH]2)cc1OC | · | 2% | 2% | -22% | · | 1% | · | ·
CCCCONc1ncnc2nonc12 | ? | 7% | 15% | 0% | -4.4% | 1% | ? | -6%
COc1ccc(NC(=O)c2ccc(C(=O)Nc3ccc(OC)cc3OC)cc2)c(OC)c1 | 8%[46.1 µM] | · | 12% | -20% | · | 3% | -16% | ·
CN(C)c1cccc(NC(=O)c2cccc3ccccc23)c1 | 20%[46.1 µM] | -6% | -16% | -6% | · | 4% | 7%[46.1 µM] | ·
CCN(Cc1ccccc1)C(=O)CN1C(=O)COc2ccc(S(=O)(=O)N3CCOCC3)cc21 | · | · | · | -3% | -1.9% | · | 14%[46.1 µM] | 21%
Cc1cc(O)c(C2(C(F)(F)F)NCCNC2=O)cc1C (stereo not given) | -12% | 5% | -6% | ? | 14% | 2% | 10% | 9%

Next entries
SMILES | MARV entry inh | NS1 inh | RE007 growth inh | 2A StopGo | Cruzain Triton | SARS PLpro yeast | LASV entry inh | Cruzain noTriton
COc1cc(OC)cc(C(=O)NNC(=O)CNC(=O)c2ccc(Br)o2)c1 | ? | · | -3% | -20% | · | -12% | 14% | ·
CC1(C)Oc2ccc3ccc(=O)oc3c2C(/C=N/O)=C1Cl | 18%[46.1 µM] | 2% | 3% | 1% | · | 2% | 7%[46.1 µM] | ·
CN(C(=O)C(C)(C)C)c1ccc(OCC(=O)N2CCc3ccccc3C2)cc1 | -23%[46.1 µM] | 1% | 1% | ? | · | 0% | ? | ·
Cc1ccc(NC(=O)c2cc(S(=O)(=O)N(C)C3CCCCC3)ccc2F)cc1C | · | · | · | -10% | 0.3% | · | -7%[46.1 µM] | -29%
O=C1c2cccc3cccc(c23)C(=O)N1CCN1CCN(C(=S)Nc2ccccc2)CC1 | -24% | 12% | -9% | 4% | -4.5% | 8% | -30% | ?
O=C(NCc1ccccn1)Nc1ccc(F)c(Cl)c1 | · | 2% | -9% | 0% | · | -4% | · | ·
CCOC(=O)C1C(=O)C(=O)N(C(C)C)C1C(=O)OCC (stereo not given) | 16%[46.1 µM] | · | 4% | -4% | · | · | 26%[46.1 µM] | ·
CCC(=O)N1CCc2cc(S(=O)(=O)NCCC(=O)N3CC=C(c4ccccc4)CC3)ccc21 | · | -2% | · | · | -1.8% | 1% | · | ?
O=c1cc(CO)oc(CN2CCN(c3ccccc3F)CC2)c1O | 23% | ? | 0% | -5% | 0.3% | 3% | -10% | -2%
Cc1ccc(S(=O)(=O)NC2CC(C)(C)NC(C)(C)C2)cc1C | -27%[46.1 µM] | 8% | 7% | 11% | · | -3% | 3%[46.1 µM] | ·
O=c1oc2ccccc2c(O)c1Sc1c(O)c2ccccc2oc1=O | -1%[46.1 µM] | · | 1% | -7% | · | · | ? | ·
COc1ccc(NC(=O)CSc2n[nH]c(N)n2)c([N+](=O)[O-])c1 | 13% | 7% | -2% | -3% | 0.7% | -7% | 1% | -5%
O=C(Nc1cccc(C(=O)N2CCN(c3ccccc3F)CC2)c1)c1nsc2ccccc12 | · | · | · | -14% | -1.3% | · | 10%[46.1 µM] | ?
CC(C)c1nc2ccc(C(=O)NCCCN3CCN(c4ccc(F)cc4)CC3)cc2o1 | · | · | · | 2% | -0.8% | · | -16%[46.1 µM] | -7%
